WNV protease inh: inhibitors of West Nile virus NS2B-NS3 protease | P06935 | WNV NS2B-NS3 protease, fluorogenic substrate Ex360/Em465; hits give low values | z-score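 (tested at a level between 10 and 100 µM)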 | 0.18% of 65,000 active;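 active = z-score at -3 or under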;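 note: score is relative to mean and spread of the compound wells of a plate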
Target sequence (P06935 1371-1501 limits assumed): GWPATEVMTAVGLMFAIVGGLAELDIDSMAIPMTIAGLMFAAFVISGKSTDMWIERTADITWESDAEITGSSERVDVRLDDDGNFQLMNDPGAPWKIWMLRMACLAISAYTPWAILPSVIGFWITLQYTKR
Target sequence (P06935 1502-1679 limits assumed): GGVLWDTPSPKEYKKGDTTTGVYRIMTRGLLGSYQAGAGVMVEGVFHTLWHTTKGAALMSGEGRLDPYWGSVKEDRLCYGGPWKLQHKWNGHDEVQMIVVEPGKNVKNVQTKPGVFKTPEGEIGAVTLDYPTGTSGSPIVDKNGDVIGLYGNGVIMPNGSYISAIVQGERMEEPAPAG
MT1-MMP reporter: MT1-MMP gene expression reporter suppression – cell-based, luciferase reporter, luminescence (AID 618) | 0.62% of 87,000 active | calls from a first round at 10 µM; hits with a dose series show EC50 in µM | MT1-MMP promoter luciferase reporter cells, luminescence;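 active = over half of the reporter light lost at 10 µM or EC50 under 50 µM; inactive = the rest and hits that failed the dose series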;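 note: actives suppress MT1-MMP promoter-driven transcription so potencies describe inhibitors; HT1080 fibrosarcoma cells; overnight exposure; toxic or luciferase-blocking compounds were not removed from the actives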
Hsc70 ATP site: small molecules displacing fluorescent ligand from Hsc70 – biochemical, fluorescence polarization, primary screen (AID 568); Hsc70 fluorescence polarization, probe displacement; higher % means a stronger effect; strong numbers were not always called active; displacement, % at 20 µM, or IC50 in µM where a hit was titrated; 83,000 tested, under 10 active;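 active = displacement above 50% without optical interference and an IC50 on retest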;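 note: ATPase domain with a fluorescein-tagged ATP probe; 0% = vehicle and 100% = excess ADP; read after one hour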
The depositor's hits bear a star; i = inactive; · = not tested or not shown. Compounds as they come; any-hit rate near 0.77%.

Results follow in this order: WNV protease inh, MT1-MMP reporter, Hsc70 ATP site
- CCn1c(N)c(C(=O)NC)sc1=S
  -0.43, i, -2.6%
- Cc1cc(C)c(C#N)c(SCS(=O)c2ccc(C(C)(C)C)cc2)n1 (stereo unspecified)
  1.04, i, 3.2%
- CCCCCOc1ccc(C(=O)NCC(=O)NCC(=O)OCC)cc1
  0.05, i, 3.9%
- CC(C)Cn1c(=O)c2ccccc2c2ccccc2c1=O
  -0.71, i, -2.7%
- S=c1[nH]nc(Cc2ccccc2)n1-c1ccccc1
  0.54, i, -1.1%
- COc1cccc(N2CCN(C(=O)NC3CCCCC3)CC2)c1
  -0.35, i, 7.7%
- COc1ccc(NC(C)=O)cc1NC(=O)CSc1nnc(-c2ccccn2)n1C
  1.11, i, 8.2%
- CCOc1ccccc1C(=O)NCc1ccc2c(c1)OCO2
  0.32, i, 1.4%
- COC(=O)c1ccc2ncccc2c1
  0.9, i, -8.2%
- O=C(O)CC(C(=O)OCCOc1ccccc1)N1CCOCC1 (stereo unspecified)
  -1.03, i, 3.6%
- CC1CC(C)CN(c2ncc3c(n2)CC(c2ccccc2)CC3=O)C1 (stereo unspecified)
  0.17, i, -4.9%
- CCN(CC)CCN1C(=O)C(=O)/C(=C(/O)c2ccc(C)cc2)C1c1ccncc1 (stereo unspecified)
  -0.24, i, -0.9%
- Cc1noc(C)c1COc1ccc(C(=O)NCc2ccccn2)cc1
  2.13, i, -5.4%
- CCn1c(CNC(C)=O)nnc1SCC(=O)c1ccc(Br)cc1
  -0.91, i, 1.5%
- CC(OCC(O)CN(C)CCOc1ccccc1)c1ccc(Cl)cc1 (stereo unspecified)
  1.66, i, 0.9%
- O=C(O)CCCN=CC1=C(O)C(C(=O)c2ccccc2)CCC1=O (stereo unspecified)
  ·, i, 0.7%
- CCOc1ccccc1N1CCN(C2=C(NS(=O)(=O)c3cccs3)C(=O)c3ccccc3C2=O)CC1
  ·, i, 2.5%
- N#Cc1cn(CCOc2ccc(F)cc2)c2ccccc12
  ·, i, 0.6%
- CC(=O)/C=C(\C)Nc1ccc(-c2cnc(-c3ccccc3)o2)cc1
  0.88, i, -1.0%
- CCOC(=O)CCS(=O)(=O)c1nc(-c2ccccc2)cc(C(F)(F)F)n1
  -0.57, 15.7µM*, 0.9%
- CCOC(=O)C1=C(c2ccccc2)N=C2SCC(=O)N2C1c1cccc(OC)c1 (stereo unspecified)
  ·, i, -2.2%
- COc1cc(NC(=O)c2cccs2)c(C(=O)OCC(=O)NCc2ccccc2)cc1OC
  ·, i, 1.6%
- O=C(OCC(=O)N(C1CCCCC1)C1CCCCC1)c1ccco1
  ·, i, 0.5%
- Cc1ccc(-c2csc3nnc(SCC(=O)NCc4ccc5c(c4)OCO5)n23)cc1
  -0.14, i, 3.0%
- CC(C)CCn1nnnc1C(c1ccccc1F)N1CCC(C(N)=O)CC1 (stereo unspecified)
  0.46, i, -0.7%
- O=C1COc2ccc(C(=O)NCc3ccc4c(c3)OCO4)cc2N1
  0.67, i, 9.9%
- COc1ccc(NC(=O)c2cc(CC(C)C)on2)cc1OC
  0.67, i, -0.4%
- O=C(c1ccco1)N1CCN(c2cccc(Cl)c2)CC1
  0.23, i, 6.0%
- Cn1cccc1Cc1nnc(SCC(=O)NCc2ccccc2)n1-c1ccc(F)cc1
  2.04, i, 1.3%
- O=C(NCC1CCCO1)c1cc(-c2ccncc2)nc2ccc(S(=O)(=O)N3CCOCC3)cc12 (stereo unspecified)
  -0.58, i, 3.6%

Brought forward from above: three compounds, then new ones.
Results follow in this order: WNV protease inh, MT1-MMP reporter, Hsc70 ATP site
- O=C(c1ccco1)N1CCN(c2cccc(Cl)c2)CC1
  0.23, i, 6.0%
- Cn1cccc1Cc1nnc(SCC(=O)NCc2ccccc2)n1-c1ccc(F)cc1
  2.04, i, 1.3%
- O=C(NCC1CCCO1)c1cc(-c2ccncc2)nc2ccc(S(=O)(=O)N3CCOCC3)cc12 (stereo unspecified)
  -0.58, i, 3.6%
- CCCCC(CCC(=O)O)(C(=O)OCC)c1csc(N)n1 (stereo unspecified)
  1.82, i, 3.3%
- CCOC(=O)CN(C(=O)Cn1nnc(-c2ccc(C)cc2)n1)C(CC)C(=O)NC1CCCC1 (stereo unspecified)
  0.49, i, -4.8%
- Cn1c(NCCCN2CCOCC2)nc2c1c(=O)n(Cc1ccc(Cl)c(Cl)c1)c(=O)n2C
  1.34, i, 0.9%
- Cc1[nH]c2ccc(-c3nnc(SCC(=O)NCc4ccco4)n3Cc3ccccc3)cc2c1C
  -0.95, i, -16.4%
- CN(C)c1nc(NCc2ccccc2)nc(Oc2ccc(=O)[nH]n2)n1
  -0.1, i, -5.6%
- O=S(=O)(c1ccc(N2CCN(CCO)CC2)nc1)N1CCCCC1
  ·, i, 1.5%
- Cc1ccnc2nc(C(=O)NCCc3ccc(F)cc3)nn12
  ·, i, 3.5%
- Cc1cc(C)cc(OCC(=O)Nc2ccccc2C(=O)NCc2ccco2)c1
  0.05, i, -7.7%
- Cc1c(C#N)c2ccccc2n1CC(=O)N1CCCC1
  0.07, i, 3.0%
- CC(=O)CC(=O)NC(=NC1CCCCC1)Nc1nc(C)cc(C)n1
  -0.44, i, 0.0%
- CCOC(=O)Cc1nnc(NC(=O)CSc2nnc3c4ccccc4n(C)c3n2)s1
  -0.34, i, 0.4%
- COc1ccc(OC)c(C2C3CN(C(C)C)CC=C3C(C#N)=C(N)C2(C#N)C#N)c1 (stereo unspecified)
  -0.67, i, 70.2%
- Cc1ccc(C(=O)NC2CCS(=O)(=O)C2)cc1S(=O)(=O)N1CCOCC1 (stereo unspecified)
  -0.14, i, 3.8%
- Cc1cccn2c(=O)c3cc(C(=O)NCCCN4CCCC4=O)n(C)c3nc12
  0.83, i, 9.2%
- O=C(CSc1nnc(CNc2cccc(C(F)(F)F)c2)n1Cc1ccco1)NCc1ccco1
  ·, i, -0.8%
- Cc1noc(C)c1COc1ccc(C(=O)OCC(=O)N2CC3(C)CC2CC(C)(C)C3)cc1 (stereo unspecified)
  -0.39, i, 3.6%
- O=C(COc1ccccc1)Nc1nccs1
  ·, i, 4.2%
- O=C1CN(C(=O)c2ccc(Br)o2)C(c2ccc(F)cc2)c2cc(F)ccc2N1 (stereo unspecified)
  -0.72, i, -2.2%
- O=C(Nc1ccc(Oc2ccc(Cl)cc2)cc1)c1ncn[nH]1
  0.11, i, 0.0%
- CC1CC(=O)c2cnc(N)nc2C1 (stereo unspecified)
  ·, i, -4.1%
- CC1CCCCN1CCNC(=O)CN1C(=O)COc2ccccc21 (stereo unspecified)
  -1.44, i, 2.8%
- COc1cc(-c2c(C#N)c(N)nc(SCc3ccncc3)c2C#N)cc(OC)c1OC
  -0.00203, i, -1.3%
- Cc1noc(C(=O)Nc2sc3c(c2C#N)CCC3)c1Cl
  0.4, i, 4.8%
- COc1ccc(OC)c(NC(=O)c2ccc(NS(=O)(=O)c3c(C)noc3C)cc2)c1
  -0.97, i, 4.0%
- O=C(c1ccncc1)N1CCN(C(=O)c2cccs2)CC1
  -0.11, i, 1.4%
- COC(=O)c1ccc(C2C(C(C)=O)=C(C)Nc3ncnn32)cc1 (stereo unspecified)
  -0.09, i, 2.0%
- CCCn1c(=N)n(CC(=O)c2ccco2)c2ccccc21
  -1.33, i, -5.8%
- CCCSCCCNC(=O)Cn1cc2c(n1)CCC(C)C2 (stereo unspecified)
  0.21, i, 1.1%
- O=C(Nc1ccc(N2CCOCC2)cc1)C1(S(=O)(=O)c2ccccc2)CC1
  -0.89, i, -0.7%
- O=C(Nc1ccccc1-c1nc2ccccc2o1)c1ccc2c(c1)OCCO2
  -0.21, i, -5.9%

Full records, quoted from the list.
O=C(Nc1ccc(Oc2ccc(Cl)cc2)cc1)c1ncn[nH]1 as listed: WNV protease inh: 0.11; MT1-MMP reporter: i; Hsc70 ATP site: 0.0%
CCCSCCCNC(=O)Cn1cc2c(n1)CCC(C)C2 (stereo unspecified) as listed: WNV protease inh: 0.21; MT1-MMP reporter: i; Hsc70 ATP site: 1.1%

(listing goes on)
Results follow in this order: WNV protease inh, MT1-MMP reporter, Hsc70 ATP site
- O=C(C1CCCO1)N1CCN(c2ncccn2)CC1 (stereo unspecified)
  -0.13, i, 1.6%
- COCCn1c(SCC(=O)Nc2ccc(S(=O)(=O)N3CCOCC3)cc2)nc2ccccc21
  -0.49, i, 1.9%
- Cc1ccc(-n2nnnc2SCC(=O)NC(=O)Nc2ccc3c(c2)OCCO3)cc1
  0.21, i, -3.7%
- Cc1ccc(S(=O)(=O)N2CCN(C(=O)c3nn(C(C)C)c(=O)c4ccccc34)CC2)cc1C
  ·, i, -1.1%
- O=C(Cn1c(=O)oc2cc(S(=O)(=O)N3CCCC3)ccc21)N1CCN(c2ccccn2)CC1
  -0.65, i, -0.3%
- O=C(CCCOc1ccc(Cl)cc1Cl)n1nnc2ccccc21
  ·, i, 6.9%
- Cc1ccc(C(=O)O/N=C(\N)c2ccc(Br)cc2)cc1
  ·, i, 1.6%
- OCCNCCOc1ccccc1-c1ccccc1
  ·, i, -1.8%
- Nc1ccc2c(c1)N1CCN=C1S2
  0.69, i, 2.1%
- Cc1nc2n(n1)CC(O)CS2 (stereo unspecified)
  -0.89, i, 2.2%
- CCOC(=O)c1ccc(NC(=O)CC2C(=O)N(c3cccc(OC)c3)C(=O)N2CCOC)cc1 (stereo unspecified)
  -0.04, i, 4.1%
- C=C(C)CSc1nncn1/N=C/c1ccc(OC)cc1
  0.45, i, -1.2%
- CCCC(=O)NCCc1nc2ccccc2n1C
  -0.53, i, 0.9%
- Cc1nc2ccc(S(=O)(=O)NC(C(=O)N3CCCCCC3)C(C)C)cc2s1 (stereo unspecified)
  0.55, i, 1.4%
- CC1(C)CN(O)CCN1O
  0.07, i, -2.4%
- O=c1c2cnn(-c3ccccc3)c2ncn1Cc1cccc(Cl)c1
  1.09, i, -1.8%
- COCc1cc(=O)n2[nH]c(SC)nc2n1
  -0.3, i, -7.2%
- CCOC(=O)c1c(/N=C/N(C)C)sc(C(=O)OC)c1C
  -0.38, i, -2.2%
- Cc1c(C(=O)/C=C/c2cccs2)oc2ccc(F)cc12
  ·, i, -7.4%
- CC(C)Cc1cc(C(=O)Nc2cc(Cl)ccc2Cl)no1
  0.8, i, 3.0%
- O=c1c2cc(Cl)ccc2oc2nc3n(c(=O)c12)CCCS3
  0.72, i, -5.3%
- CCCc1nc(N2CCOCC2)c(C#N)c2c1CCCC2
  0.21, i, -0.8%
- CC1CCN(c2ncnc3c2cnn3-c2ccccc2)CC1
  -1.75, i, 2.3%
- CCOCCCn1c(=S)[nH]c2cc(C(=O)NCCN(CC)CC)ccc2c1=O
  -1.24, i, -2.0%
- COc1cc(C)c(Cl)cc1S(=O)(=O)NCc1ccncc1
  -1.43, i, 1.0%
- CSc1nc(C)c(Oc2ccccc2)c(=O)n1C
  2.65, i, -2.0%
- COc1ccc(OC)c(NC(=O)C2CCCN(S(=O)(=O)c3cccc4cccnc34)C2)c1 (stereo unspecified)
  -0.87, i, 8.0%
- COC(=O)c1cn(NC(=O)CC2CCCCC2)c(=O)c2ccccc12
  -1.11, i, -11.6%
- N#C/C(C(=O)NCc1ccco1)=C1/SC(Cc2ccc(Cl)cc2)C(=O)N1c1ccccc1 (stereo unspecified)
  0.47, i, -16.4%
- Cc1cc(C)n2nc(NCc3cccc(Br)c3)nc2n1
  0.21, i, 0.3%
- N#C/C(=C\c1cn(-c2ccccc2)nc1-c1cccnc1)c1nnc2n1CCCCC2
  ·, i, 0.7%
- CCNc1oc(-c2ccc(OC)cc2)nc1S(=O)(=O)c1ccc(Br)cc1
  ·, i, -0.4%
- CCOC(=O)c1ccccc1NC(=O)N1CCn2c(C)ccc2C1CC (stereo unspecified)
  -0.21, i, 8.1%
- Cc1cccc(C)c1NC(=O)CSc1nnc(-c2ccoc2C)n1CCc1ccccc1
  -0.01, i, -1.6%
- CCOC(=O)C1=C(C)NC2=C(C(=O)c3ccccc32)C1c1cccnc1 (stereo unspecified)
  0.58, i, 3.1%
- COc1ccc(-c2cn3cccnc3n2)cc1NC(=O)C1CCCC1
  -0.4, i, -3.6%
- COc1ccccc1OCC(=O)Nc1oc(-c2ccccc2)c(-c2ccccc2)c1C#N
  -0.69, i, 1.1%
- Cc1ccc2cc(CN(Cc3ccc4c(c3)OCO4)Cc3nnnn3Cc3ccco3)c(=O)[nH]c2c1C
  -0.75, i, -5.2%
- CN(Cc1cccs1)C(=O)CSc1nnnn1C
  ·, i, 7.2%
- O=C(NCC(=O)N(Cc1ccc(F)cc1)C(C(=O)NC1CCCC1)c1ccco1)c1ccco1 (stereo unspecified)
  1.38, i, 0.2%
- CCOC(=O)C1CCN(C(=O)COc2cc(C)c(Br)c(C)c2)CC1
  -0.73, i, 1.0%
- Cc1oc(-c2ccccc2Cl)nc1CSCC(=O)NC1CCCC1
  ·, i, 1.1%
- Cc1ccn(CCSCC(=O)O)n1
  -0.29, i, -5.0%
- Cc1cc(N2CCCN(C)CC2)nc2cc(Cl)ccc12
  0.23, i, -1.6%
- COC(=O)CSc1cc(C(=O)c2nccn2C)c2ccccc2n1
  0.5, i, 1.4%

Assay outcomes as filed in PubChem.
